Calb biofilm kill = clotrimazole potentiators killing C. albicans biofilm, primary screen, 4-compound mixtures; C. albicans biofilm persisters + clotrimazole, fluorescence viability; primary screen in compound mixtures of four per well; inhibition, % at 7.6 µM; 120,000 compounds, 0.02% hits;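 active = inhibition above 30.3% in the primary screen of four-compound pools, then above 30% when the compound was retested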;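 note: compounds exposed to preformed 24 h biofilms for 48 h; the number belongs to the whole pool; some results filed as inactive read as strong as hits; inactives centre near 12; 0% = biofilm with clotrimazole alone and 100% = kill control; retested singly at about 60 µM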
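Probe or stimulus – Clotrimazole 50 µg/mL co-treatment · System – C. albicans biofilms · Schedule – 24 h biofilm formation, then 48 h compound exposure, 37 °C · Evaluation – percent inhibition of biofilm viability · Technique – 2-h Alamar Blue fluorescence, 535/590 nm excitation/emission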
Active calls of the source: *. These rows are one share of the data; count on the stated rates, not on these rows.

SMILES	Calb biofilm kill
CC(C)Oc1ccc(Cc2cnc(=S)[nH]c2N)cc1	14
O=C(c1ccccc1Sc1ccccc1[N+](=O)[O-])N1CCCCC1	2
CC(=O)c1cccc(NC(=O)Nc2cccnc2)c1	9
O=[N+]([O-])c1ccc(Cl)c(/C=N/n2c(-c3cccnc3)n[nH]c2=S)c1	4
CC(C)/C=N/NC(=O)c1cc(Br)ccc1O	10
CCOC(=O)c1ccccc1NC(=O)Cc1ccccc1OC	13
Cc1ccc(/C=N/n2c(C3CCCCC3)n[nH]c2=S)s1	12
CC(=O)N1C(=O)/C(=C2\SC(=S)N(NC(=O)c3ccc(O)cc3)C2=O)c2ccccc21	11
CN(C)C(=O)c1ccc(NC(=O)CSc2nc3ccccc3[nH]2)cc1	12
O=C(O)/C=C\C(=O)Nc1ccccc1F	17
S=C(NCc1ccncc1)Nc1ccc(Cl)cc1Cl	3
COc1cc(/C=C2\SC(=Nc3ccccc3)N(CCc3c[nH]c4ccccc34)C2=O)ccc1OC(C)C(=O)O (stereo not drawn)	16
Cc1cc(C(=O)NNc2ccc(F)cc2F)no1	26
CS(=O)(=O)c1ccc(-c2nnn(CC(N)=O)n2)cc1	10
O=C(CCCc1ccccc1)NCCC1=CCCCC1	15
COc1ccc(Br)cc1CNC(=O)CCCc1cn(C)c2ccccc12	18
O=C(CN1CCN(c2ccccc2O)CC1)Nc1ccc2c(c1)CCC2	0
CCc1ccc(NC(=O)c2ccc(F)c(S(=O)(=O)N(CC)c3ccccc3)c2)cc1	4
CC(C)(C(=O)Nc1nccs1)c1ccccc1	9
CC(NC(=O)CSc1ncccc1C(=O)O)C1CC2CCC1C2 (stereo not drawn)	28
CCOC(=O)c1cnn(-c2nc(OC)cc(OC)n2)c1C(F)(F)F	17
O=c1[nH]c2c(cnn2-c2ccc(Cl)cc2)c(=O)n1-c1cccc(Cl)c1	21
Cc1cc(N/C=C(\C#N)S(=O)(=O)c2ccccc2Cl)nc(C)n1	29
COCc1cc(=O)[nH]c(/N=C(\N)Nc2ccc(Cl)c(Cl)c2)n1	17
N#Cc1cnc(Nc2ccc(F)cc2)nc1N	17
S=C(Nc1ccccc1Cl)N1CCCC(c2ccccc2)=N1	24
COc1ccc(C(=O)ON=C2C=C(C)C(=O)C(C)=C2)cc1	5
O=C(CCCOc1ccc(Cl)cc1)Nc1ccc(N2CCOCC2)cc1	19
COc1ccc(NC(=O)CC(c2ccc(F)cc2)c2ccc(OC(C)C)cc2)cc1 (stereo not drawn)	10
CN(C)/C=C(/C(=O)c1ccc(Cl)c(Cl)c1)c1nnnn1-c1ccccc1	7
O=C(OCc1ccco1)c1cccnc1	7
CCCc1cc(=O)c2c(O)ccc(OC)c2o1	24
O=C(CC1SC(=NCC2CCCO2)NC1=O)Nc1cc([N+](=O)[O-])ccc1Cl (stereo not drawn)	13
Cc1ccccc1C(OCCN(C(C)C)C(C)C)c1ccccc1 (stereo not drawn)	11
N[C@@H](Cc1ccc(O)c(I)c1)C(=O)O	10
COc1ccc(S(=O)(=O)N2CCC(C(=O)Nc3cccc(C(C)=O)c3)CC2)cc1	13
CSc1ccc(C(=O)C2CCCN(C(=O)c3ccc4c(c3)no[n+]4[O-])C2)cc1 (stereo not drawn)	18
CCn1ncc(N(C)N)c(Cl)c1=O	-21
CC(C)(C)NC(=O)c1nn(Cc2ccccc2)c(=O)c2ccccc12	10
Cc1cc(Nc2c(C#N)c(N)nn2C)ccc1F	14

A draw from above in order of length of the SMILES, high to low.
SMILES	Calb biofilm kill
O=C(CC1SC(=NCC2CCCO2)NC1=O)Nc1cc([N+](=O)[O-])ccc1Cl (stereo not drawn)	13
COc1ccc(NC(=O)CC(c2ccc(F)cc2)c2ccc(OC(C)C)cc2)cc1 (stereo not drawn)	10
CN(C)C(=O)c1ccc(NC(=O)CSc2nc3ccccc3[nH]2)cc1	12
CCOC(=O)c1cnn(-c2nc(OC)cc(OC)n2)c1C(F)(F)F	17
O=C(CN1CCN(c2ccccc2O)CC1)Nc1ccc2c(c1)CCC2	0
O=C(CCCOc1ccc(Cl)cc1)Nc1ccc(N2CCOCC2)cc1	19
S=C(Nc1ccccc1Cl)N1CCCC(c2ccccc2)=N1	24
CC(C)Oc1ccc(Cc2cnc(=S)[nH]c2N)cc1	14
Cc1cc(Nc2c(C#N)c(N)nn2C)ccc1F	14
CC(C)(C(=O)Nc1nccs1)c1ccccc1	9
N#Cc1cnc(Nc2ccc(F)cc2)nc1N	17
CCn1ncc(N(C)N)c(Cl)c1=O	-21

The listing continues.
SMILES	Calb biofilm kill
O=S(=O)(NCc1ccco1)c1ccc(Cl)nc1	-12
N#CCCn1cc(/C=N/N=C2\NC(=O)C(CC(=O)O)S2)c(-c2ccc(F)cc2)n1 (stereo not drawn)	8
Cc1cc2cc(CCNC(=O)c3cccc([N+](=O)[O-])c3)c(=O)[nH]c2cc1C	16
COc1ccccc1NC(=O)N(CCN1CCOCC1)Cc1cc2cc(C)cc(C)c2[nH]c1=O	4
NC(=O)COc1c(-c2ccco2)oc2ccccc2c1=O	-1
CCOc1ccc(-c2n[nH]c(C)c2-c2ccccn2)c(O)c1	9
O=C(O)c1ccc(CSc2ncnc3c2cnn3Cc2ccccc2)cc1	4
CN(C)C=NC(=O)c1cc(C(=O)c2ccc(Cl)cc2Cl)c[nH]1	11
Nc1nnc(COc2ccccc2)s1	14
Cn1nnnc1SCc1nc2scc(-c3ccc(Cl)cc3)c2c(=O)[nH]1	11
COc1ccccc1OCCNc1cc(N2CCCCC2)ccc1[N+](=O)[O-]	9
Cc1nc(CN(C)C(=O)c2ccccc2OC2CCN(S(C)(=O)=O)CC2)cs1	5
Nc1ncnc(Nc2ccc(F)c(Cl)c2)n1	21
CN1CCN(C(=S)Nc2cc(S(=O)(=O)N3CCOCC3)ccc2Cl)CC1	6
CC1CCN(CCOCCOc2ccc(Br)cc2Cl)CC1	-11
O=C1NCCc2c1[nH]c1ccccc21	15
Cc1ccc(-n2nnnc2SCC(=O)Nc2ccc3c(c2)OCCO3)cc1C	13
O=C(Nc1ccncc1)Nc1ccncc1	1
Cc1ccc(NC(=O)CN(C)C(=O)C2COc3ccccc3O2)cc1 (stereo not drawn)	5
COc1ccc(OC)c(S(=O)(=O)Nc2cc(C(=O)O)ccc2N2CC3CC(C2)c2cccc(=O)n2C3)c1 (stereo not drawn)	17
CC(C)N(Cc1cc2ccccc2[nH]c1=O)C(=O)c1ccco1	23
Cc1ccc(-c2nc(N)sc2CC(=O)OCC(=O)NCCC(C)C)cc1	11
COc1ccc(C(=O)NCC(=O)N/N=C/C(C)=C/c2ccco2)cc1OC	13
COc1ccc(-c2cnnc(N/N=C/c3ccc(O)c(O)c3)n2)cc1	8
CC(=O)N(C)N1c2ccccc2CCc2ccccc21	21
CC(=O)Nc1ccc(S(=O)(=O)N(Cc2ccccc2)c2ccccc2F)cc1	29
CCOC(=O)c1c(NC(=O)CSC(=S)N(C)C)sc(C)c1C	3
O=S(=O)(/N=C(/Nc1ccccc1)C(F)(F)F)c1ccccc1	8
Cc1cc(C)cc(NC(=O)Nc2ccccc2N2CCCCC2)c1	8
CC(C)N(C(=O)CSc1nc2ccccc2n1Cc1ccccc1)C(C)C	10
O=C(/C=C/c1ccc(Cl)cc1)NC1CCS(=O)(=O)C1 (stereo not drawn)	19
Cc1ccc(C(=O)CNc2ccc(Cl)cc2)cc1	13
CCCCn1c(Cc2ccccc2)nnc1SCC(=O)N1CCOCC1	15
CN(C)c1ccc(C2Nc3ccccc3C(=O)N2CCCN2CCOCC2)cc1 (stereo not drawn)	12
O=C(CN1CCOCC1)Nc1ncc(Cc2cccc(Cl)c2Cl)s1	7
c1ccc(-c2noc(CCC3CCCC3)n2)cc1	32
COc1cccc(N=C(N)N=C(N)N)c1	30
COc1cccc(NC(=S)N(CCCN2CCCC(C)C2)Cc2cccs2)c1 (stereo not drawn)	7
CSc1ccc(/C=N/NC(=O)CN2CCN(Cc3ccccc3)CC2)cc1	21
O=C(Cn1c(C(F)(F)F)nc2ccccc21)OCC(=O)c1c[nH]c2ccccc12	18

Rewritten with each value named: four of the compounds above
Compound: Cc1ccc(C(=O)CNc2ccc(Cl)cc2)cc1
  Calb biofilm kill = 13

Compound: CCCCn1c(Cc2ccccc2)nnc1SCC(=O)N1CCOCC1
  Calb biofilm kill = 15

Compound: CN(C)c1ccc(C2Nc3ccccc3C(=O)N2CCCN2CCOCC2)cc1 (stereo not drawn)
  Calb biofilm kill = 12

Compound: O=C(CN1CCOCC1)Nc1ncc(Cc2cccc(Cl)c2Cl)s1
  Calb biofilm kill = 7

(cont.)
SMILES	Calb biofilm kill
O=C(NCc1ccccc1)c1ccc(Cl)cc1	10
CCOC(=O)c1ccc(NC(=S)Nc2cccc(C)n2)cc1	9
COc1ccc(CNC(=O)CN(Cc2ccc(F)cc2)C(=O)c2csnn2)cc1	11
CCN1C(=O)/C(=C/C=C2/Sc3ccc4ccccc4c3N2CCO)SC1=S	-12
Cc1cc(C(=O)NNc2ccccc2F)no1	24
O=C(NN1C(=O)/C(=C\c2cccnc2)SC1=S)C(c1ccccc1)c1ccccc1	21
COc1c(O)c(O)c2oc(-c3ccccc3)cc(=O)c2c1OC	20
Cc1ccc(NC(=O)c2ccc(OC(=O)COc3cccc(Cl)c3)cc2)cc1	-1
CN(c1ccccc1)S(=O)(=O)c1ccc(C(=O)N2CCc3ccccc3C2)cc1	7
CCN(CC)C(=O)Oc1ccc2cc(Br)ccc2c1	14
NC(=O)Nc1ccc(C(=O)OCC(=O)Nc2ccc(Cl)cn2)cc1	9
O=[N+]([O-])c1cc(C=Nc2ccc3ccccc3c2)ccc1Br	13
Brc1ccc(-c2nnc3ccc(Nc4ccccc4)nn23)cc1	4
CCCc1nc2ccccc2n1CCc1ccccc1	10
COC(/C=C/Nc1ccc(Cl)cc1)=C(C#N)C#N	21
O=C(NNC(=O)c1cccnc1SCc1cccc([N+](=O)[O-])c1)c1ccccn1	20
COC(=O)c1sccc1-c1ccc(C(N)=O)o1	1
CCN1/C(=C2\C(=O)N(C)C(=S)N2C)C=Cc2cc(OC)ccc21	20
O=C(Cc1cccs1)N/N=C/C=C/c1ccco1	9
COc1ccc(C(=O)Nc2nc3c(s2)CCCC3)cc1S(=O)(=O)N1CCCc2ccccc21	18
COC(=O)C(C)Sc1nc(N)c(NC(=O)c2ccco2)c(=O)[nH]1 (stereo not drawn)	12
O=C1c2ccccc2C(=O)N1CCC(O)C[N+](=O)[O-] (stereo not drawn)	7
CCOC(=O)C1(Cc2ccccc2)CCN(Cc2cc(=O)c3ccccc3[nH]2)CC1	2
Cc1cc(N2C(=O)C=CC2=O)c([N+](=O)[O-])cc1C	14
Cc1ccc(C(F)(F)F)cc1NC(N)=S	-6
Cc1nc(NC(=O)/C=C/c2ccc(F)cc2)sc1C(=O)N(C)C	11
CC(=O)c1cccc(N2C(=O)C3C(C(=O)Nc4cc(C)on4)C4(C)C=CC3(O4)C2C(=O)NC(C)(C)C)c1 (stereo not drawn)	11
CCOC(=O)c1nn(-c2ccc(F)cc2)c2nc(-c3ccccc3)c(C#N)c(=O)n12	7
CCCc1nnc2c(N(C)S(=O)(=O)c3ccc(C)cc3)nc3ccccc3n12	17
CSCCC(NC(=O)c1cccc(C)c1)C(=O)OCC(=O)NC(=O)c1cccn1C (stereo not drawn)	10
Nc1cccc(C(=O)Nc2ccc3nc(-c4cccnc4)[nH]c3c2)c1	17
Cc1nn(C)cc1CN(C)C(=O)c1nn2c(c1Br)NC(c1cccs1)CC2C(F)(F)F (stereo not drawn)	5
COc1ccc(-c2c(C)n([O-])c3c([n+]2=O)CCCC3)cc1OC	24
COc1ccc(/C=N/NC(=O)CCc2n[nH]c(=O)[nH]c2=O)cc1O	11
COc1ccc(OC)c(NC(=O)Nc2cc(C(=O)O)ccc2C)c1	6
Cc1cc(C)cc(N(C(=O)c2cccs2)C2C=CS(=O)(=O)C2)c1 (stereo not drawn)	15
O=CN1CCCN(Cc2nc(-c3cccc(Cl)c3)no2)CC1	16
Nc1ccc(N2CCN(c3ccc(Cl)c(Cl)c3)CC2)cc1	16
NS(=O)(=O)c1cccc(NC(=O)CCS(=O)(=O)c2ccc(Cl)cc2)c1	10
O=[N+]([O-])c1cc(C(F)(F)F)ccc1NC1CCN(Cc2ccccc2)CC1	27
O=S(=O)(NCc1ccco1)c1cnc(Cl)c(Br)c1	6
Cc1cccc(/C=N/Nc2nncc3ccccc23)c1	20
C/C=C/C(=O)OCC(=O)Nc1cccc(F)c1	14
NS(=O)(=O)c1cccc(NC(=O)CCSc2ccccc2Cl)c1	-11
Cc1ccccc1/C=C/C(=O)N1CCOCC1	11
COc1cc(NC(=S)NCCCN2CCOCC2)cc(OC)c1	12
Cc1cccc(CN2CCN(c3nc4nonc4nc3NC3CC3)CC2)c1	14
COc1ccc(CN(C)CC(=O)Nc2cccc(S(N)(=O)=O)c2)c(OC)c1OC	5
COc1ccc(S(=O)(=O)Nc2ccccn2)cc1C	6
O=C(N/N=C/c1ccc(Cl)cc1)C1CC12CCC2 (stereo not drawn)	4
Cc1nc(Nc2cccc(C(C)O)c2)c2nnn(Cc3ccc(F)cc3)c2n1 (stereo not drawn)	19
O=C(COC(=O)c1cccnc1Cl)Nc1ncc(Cl)cc1Cl	11
C=CCn1c(Oc2ccccc2)nc2c1c(=O)n(C)c(=O)n2C	8
COCCN(CCOC)C(=O)COC(=O)c1ccc(Cl)c(S(=O)(=O)N(C)c2ccccc2)c1	17
Cc1csc(NC(=O)c2ccc(C)o2)n1	22
COc1ccc(C(=O)O/N=C(\C)c2cnccn2)cc1	1
COCCOC(=O)C1=C(C)N(c2ccccc2)C(=S)NC1c1ccccc1C(F)(F)F (stereo not drawn)	13
CNc1nccc(-c2ccc(Cl)cc2)c1C#N	0
S=C(NC1CCCC1)N1CCN(c2ccc(Cl)cc2)CC1	12
CCOC(=O)C1=C(C)N(c2ccccc2)C(=O)/C1=C\c1ccco1	19
C(=C\c1ccco1)/C1=NN(c2ccccc2)C(c2ccco2)C1 (stereo not drawn)	15
Cc1c(C(=O)NC(=S)NCc2cccnc2)oc2ccccc12	14

Screens as filed in PubChem.
